Beta2AR agonist: human beta-2 adrenergic receptor agonism by FAP; 0.43% of 340,000 active; response, % (test concentration not listed); AID 504454; Am2.2-beta2AR cells, FAP receptor internalization, flow cytometry; reference of the scale not given here; P07550;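 active means response above a set limit, near 3 SD of response in nonfluorescent compounds, cut at about 42% in these data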;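 further: stock transfer was 100 nL into about 11 µL; a reference agonist was the positive control; negative values mostly stem from fluorescent compounds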
Target sequence (P07550 whole entry, looked up): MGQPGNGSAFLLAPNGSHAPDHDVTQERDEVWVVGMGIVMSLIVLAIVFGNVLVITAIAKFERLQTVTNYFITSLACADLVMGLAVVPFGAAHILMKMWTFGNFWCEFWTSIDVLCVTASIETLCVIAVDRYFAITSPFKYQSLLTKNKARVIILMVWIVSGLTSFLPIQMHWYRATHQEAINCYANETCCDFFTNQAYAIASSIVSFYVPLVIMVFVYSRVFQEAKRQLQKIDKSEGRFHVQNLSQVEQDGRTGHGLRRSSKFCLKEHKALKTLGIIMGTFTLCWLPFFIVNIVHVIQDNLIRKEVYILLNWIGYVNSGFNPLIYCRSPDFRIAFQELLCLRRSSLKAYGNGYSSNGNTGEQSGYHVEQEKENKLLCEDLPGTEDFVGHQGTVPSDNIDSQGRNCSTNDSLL
rRNA inh HTS: selective bacterial rRNA inhibition in E. coli. E. coli WT GFP vs humanized-ribosome RFP mutants, fluorescence, 24 h; active compounds read low; DMSO median 0, no signal -100. GFP signal change (wild-type ribosome), % (test concentration not listed). 1.6% of 350,000 active. AID 720706;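 active means significant combined selectivity score with lowered wild-type GFP, culture density cut under 30%, mutant RFP and density less affected; inactive means any of these conditions unmet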; further: one replicate is shown; some compounds called inactive have numbers as strong as hits
UCH37 DUB inh: inhibitors of human deubiquitinating enzyme UCH37 | purified proteasome/UCH37, Ub-AMC cleavage fluorescence | 0.33% of 330,000 active | inhibition, % (no concentration beside the values) | Q9Y5K5;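 active means mean of two replicates above 20%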;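 further: 0% = compound-free wells with enzyme and 100% = wells lacking proteasome; stock transfer was 100 nL into about 20 µL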
Target sequence (Q9Y5K5 whole entry, looked up): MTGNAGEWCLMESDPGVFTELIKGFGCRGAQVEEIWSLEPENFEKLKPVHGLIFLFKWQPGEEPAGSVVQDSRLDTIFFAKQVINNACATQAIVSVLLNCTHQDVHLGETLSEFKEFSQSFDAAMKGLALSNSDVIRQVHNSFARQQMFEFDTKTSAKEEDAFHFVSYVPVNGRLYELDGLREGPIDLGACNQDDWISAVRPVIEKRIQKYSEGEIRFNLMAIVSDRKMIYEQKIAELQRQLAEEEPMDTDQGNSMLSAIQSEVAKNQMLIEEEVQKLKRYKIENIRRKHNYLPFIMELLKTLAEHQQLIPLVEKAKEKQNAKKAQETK
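Assay system: Proteasome-bound UCH37. Buffer or medium: pH 7.4 Tris-HCl (50 mM) with ovalbumin, ATP-MgCl2, DTT. Incubation: 30 min preincubation with enzyme, 25 min cleavage at room temperature. Measured by: fluorescence, ex 355 nm, em 460 nm. Read-out basis: percent inhibition. Control set: wells without proteasome as full block, compound-free enzyme plus substrate as uninhibited.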
HNF4A DNA FP: change in binding of human HNF4 alpha to DNA; P41235; HNF4a-FITC DNA binding, fluorescence polarization, 1 h; activity change, % at 10 µM; 0.3% of 360,000 active; AID 1224865; in the data active means activity change above about 30%, passing the limit was not always enough;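 further: controls were the assay level and a saturating level of protein; the project sought stronger binding though the title names inhibitors; some compounds called inactive have numbers as strong as hits; positive values seem to mean higher polarization but the record does not say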
ALR inh: human ALR oxidase inhibition via reduced H2O2; inhibition, % (test concentration not listed); AID 485317; 3.8% of 290,000 active; purified ALR, DTT oxidation, H2O2 HRP-luminol luminescence;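 active means mean and each replicate at 75% or more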;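 further: stock transfer was 7.5 nL into about 7.5 µL; 0% = neutral wells and 100% = wells with inactivated enzyme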
Target sequence (P55789 whole entry, looked up): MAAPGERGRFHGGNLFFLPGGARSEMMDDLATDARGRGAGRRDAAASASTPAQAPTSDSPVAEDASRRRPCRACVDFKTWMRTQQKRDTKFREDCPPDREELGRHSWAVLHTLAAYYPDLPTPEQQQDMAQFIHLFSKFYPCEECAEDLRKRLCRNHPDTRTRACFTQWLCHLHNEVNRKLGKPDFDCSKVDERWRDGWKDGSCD
Ecoli growth: inhibitors of Escherichia coli growth; OD600, 23 h; active compounds read low; OD600 absorbance (concentration not given with the values); 0.21% of 330,000 active; AID 1053175;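 active means OD600 absorbance below the run mean of sample wells minus 3.6 SD, in any replicate, cut at about 0.56 in these data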;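 further: stock transfer was 300 nL into about 60 µL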
FGF22 binding: shifts melting point of recombinant human FGF22; recombinant FGF22 thermal shift, SYPRO orange fluorescence; percent of sucrose octasulfate shift, DMSO zero; calls only at 9.99 µM; 1.5% of 340,000 active;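 active means melting point raised past a set limit in the mean and every replicate; three in four hits are not shown here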
rRNA inh HTS OD600: recorded beside rRNA inh HTS, whose call it bears; OD600 change, %; measured here: OD600 growth;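 optical density of the mix in the first replicate; 0 = DMSO median and -100 = no signal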
rRNA inh HTS RFP: further read-out of rRNA inh HTS, marked with its call; RFP signal change, %; measured here: RFP humanized mutant strains;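 first replicate; 0 = DMSO median and -100 = no signal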
* hit, by the source's call; i = inactive; . = no result given.

Beta2AR agonist,rRNA inh HTS,rRNA inh HTS OD600,rRNA inh HTS RFP,UCH37 DUB inh,HNF4A DNA FP,ALR inh,Ecoli growth,FGF22 binding,compound
0,-6,-18,-1.0,3.1,5.7,-7,0.69,i,O=C(COc1c(CO)cc(Br)cc1CO)NC1CCCc2ccccc21 (stereo not drawn)
-2,-16,-40,-5.8,1.6,1.6,-3,0.65,i,COCc1c(C(=O)NCCOc2ccc(Cl)cc2)oc2ccccc12
-1,4,13,-1.4,.,-1.2,5,.,i,CC(C)(C)C(=O)Nc1ccc(NC(=O)c2ccco2)nc1
0,12,8,1.9,2.4,0.4,-6,0.75,i,COC(=O)C(Cc1ccccc1)NC(=O)CNS(=O)(=O)c1ccc(Br)cc1 (stereo not drawn)
6,21,17,-0.6,-1.8,-3.3,-12,0.69,i,CCOc1ccc(CN2CCN(Cc3ccon3)CC2CCO)cc1 (stereo not drawn)
1,1,-3,-6.1,4.7,4.5,9,0.72,i,O=C(Nc1c(-c2cccs2)nc2ccccn12)c1ccccc1F
9,.,.,.,0.9,3.1,-4,0.7,.,COc1ccc(Cc2nc(C(=O)Nc3ccc(OC)cc3)cs2)cc1
1,-14,-7,7.7,-1.1,-0.7,6,0.71,i,Cc1ccc(NS(=O)(=O)c2cc3c4c(c2)CC(=O)N4CCC3)cc1C
-2,.,.,.,-64,3.1,-1,0.7,.,O=C(N/C(=C/c1ccc(Cl)cc1)c1nc2ccccc2[nH]1)c1ccco1
37,.,.,.,10,-0.3,90*,0.73,.,CC(=O)OCCCNc1cc(SCc2ccco2)c2nonc2c1[N+](=O)[O-]
-4,.,.,.,8.2,-1.9,-6,0.82,.,COCCn1c(C)c(C(=O)O)sc1=S
4,-3,0,2.0,1.1,-0.5,98*,0.43*,i,O=c1cc(-c2ccccc2)cc(-c2ccccc2)n1O
1,8,8,0.4,4.2,3.7,-3,0.65,i,CC(C)(C)N1CC(C(=O)Nc2ccc(C#N)cc2)CC1=O (stereo not drawn)
0,1,2,1.6,2.0,-1.8,-6,0.68,i,Cc1cc(S(=O)(=O)N2CCCCC2)c(C)s1
-5,.,.,.,-406,1.1,-1,0.65,.,Cc1ccccc1C=Nc1ccccc1C(N)=O
-2,.,.,.,3.0,0.7,-26,0.69,.,CC1(C)OC(=O)N(CCc2ccccc2)C1(C)O (stereo not drawn)
10,7,2,-4.9,.,-2.5,21,.,i,O=[N+]([O-])c1ccc(S(=O)(=O)N/N=C/c2cccs2)cc1
0,.,.,.,3.5,-3.4,-1,0.71,.,Cc1nc(Cc2nnc(SC(C)C(=O)Nc3cccc(C#N)c3)o2)cs1 (stereo not drawn)
-4,20,19,-1.3,2.7,0.7,-13,0.66,i,O=C(Nc1ncccc1O)c1ccc(OCC2CCCO2)cc1 (stereo not drawn)
-9,3,4,0.6,1.6,-2.0,0,0.73,i,COc1ccc(-c2nnc(SCC(=O)NCC3CCCO3)o2)cc1 (stereo not drawn)
3,.,.,.,4.4,-1.0,.,0.64,i,CN(Cc1ccccc1)C(=O)[C@@H]1CCCN1S(=O)(=O)c1ccc(Cl)cc1
1,-1,-7,5.6,2.0,-51,1,0.68,.,CC1CCCC(n2c(=S)[nH]c3ccccc3c2=O)C1C (stereo not drawn)
9,.,.,.,2.0,-2.5,33,0.66,.,NC(=O)c1ccccc1NC(=S)NC(=O)c1ccc(Br)o1
-3,.,.,.,1.9,-2.1,-1,0.69,.,O=C(c1ccc(S(=O)(=O)N2CCOCC2)cc1)N1CCN(c2ccccc2F)CC1
1,11,9,0.9,1.3,0.0,3,0.68,i,COc1ccc(OC)c(C(=O)N2CCC(CCC(=O)NC3CC3)CC2)c1
-10,10,5,0.0,-0.1,-2.4,-5,0.63,i,Nc1nc2ccccc2[nH]1
8,.,.,.,5.1,-0.6,0,0.71,.,CC1=CC(=O)C=CC1(C)C(Cl)Cl (stereo not drawn)
15,-57,-78,-18,.,0.0,-14,.,i,Cc1ccc(C(C)C)cc1NC(=O)Nc1ccc([N+](=O)[O-])cc1
4,24,15,3.2,.,3.7,-25,.,i,Cc1cc(C)cc(OCC(=O)N/N=C/c2ccc([N+](=O)[O-])o2)c1
-12,-46,-52,-10,-1.0,2.5,-3,0.71,i,c1ccc(-c2cc3c(N4CCCCC4)ncnc3s2)cc1
4,.,.,.,1.9,2.3,.,0.72,.,Cc1ccc(COC(=O)CCc2nc3ccccc3c(=O)[nH]2)cc1
-2,-12,-5,-7.2,.,-5.0,-5,.,i,Cc1cc(C)cc(OCC(=O)N/N=C/c2ccccn2)c1
-2,13,10,-2.4,1.4,0.0,-1,.,i,C[C@H](NC(=O)c1nc[nH]c1C(=O)NCCCCCN)C(=O)OCc1ccccc1
3,2,2,-1.7,1.5,-0.4,-7,0.66,i,CCOc1cc(S(=O)(=O)NC2CC(C)(C)NC(C)(C)C2)ccc1Cl
-1,0,-5,1.3,5.6,1.4,-9,0.75,i,O=C1c2ccccc2C(Nc2ccc(S(=O)(=O)N3CCOCC3)cc2)N1c1ccccn1 (stereo not drawn)
5,-20*,-4.3*,6.5*,5.0,-2.1,97*,0.69,.,Cc1ccc(-c2cc(C(=O)Nc3c(C)n(C)n(-c4ccccc4)c3=O)[nH]n2)c(O)c1C
20,8,7,-2.5,.,-8.9,-2,.,i,O=C(N/N=C/c1cc([N+](=O)[O-])ccc1O)c1cccc(NC(=O)c2cccc(Cl)c2)c1
-1,.,.,.,3.6,-3.3,-14,0.72,.,COCCN(CCOC)Cc1c(C)[nH]c2ccccc2c1=O
-4,.,.,.,3.5,-1.2,.,0.72,.,COc1ccc(CCNC(=O)C2CCN(S(=O)(=O)c3cnc[nH]3)CC2)cc1OC
-1,11,4,-0.2,2.0,1.6,-17,0.74,i,COc1ccc(NC(=O)Nc2ccc(Br)cn2)cc1
6,-4,-14,1.6,0.4,0.0,-5,0.71,i,Cc1ccc(NS(=O)(=O)c2ccc(NC(=O)C(C)Sc3ccc(Cl)cc3)cc2)c(C)c1 (stereo not drawn)
4,-1,3,-1.8,4.9,1.6,-29,0.67,i,COc1ccccc1CNC(=O)CC(C)c1ccccc1 (stereo not drawn)
1,.,.,.,3.7,4.0,13,0.7,.,CCCNC(=S)NC1CCCC1
1,.,.,.,1.7,0.2,2,0.66,.,OC(COCc1cccs1)CN1CCN(c2ccccn2)CC1 (stereo not drawn)
0,.,.,.,6.8,-0.8,.,0.69,.,CSc1ccccc1NC(=O)CN(C)S(=O)(=O)c1ccc(F)cc1
7,7,11,1.9,0.5,1.9,.,0.67,i,NS(=O)(=O)c1ccc(S(=O)(=O)N2CCN(C3CCCC3)CC2)cc1
-20,.,.,.,0.6,-0.7,.,0.72,i,CCCOc1cccc(C(=O)NC(=S)Nc2cccc(NC(=O)c3ccccc3Cl)c2)c1
-2,-18,-9,1.5,.,8.4,-57,.,i,N#Cc1c(N2CCCCC2)nc(N)c2c(N)nc3c(c12)CC(CCl)O3 (stereo not drawn)
-7,.,.,.,-0.9,7.5,-25,0.64,i,O=C(COC(=O)COc1ccccc1)Nc1ccc(Br)cc1Br
4,2,-7,0.9,0.3,-4.3,0,0.68,.,CSc1ccc(CN2CCN(C(=O)c3ccc([N+](=O)[O-])cc3)CC2)cc1

Next part
Beta2AR agonist,rRNA inh HTS,rRNA inh HTS OD600,rRNA inh HTS RFP,UCH37 DUB inh,HNF4A DNA FP,ALR inh,Ecoli growth,FGF22 binding,compound
-9,.,.,.,6.7,0.9,54,0.71,.,COc1ccc(Sc2cnn(-c3ccccc3)c(=O)c2Cl)cc1
-2,.,.,.,2.1,1.2,-5,0.63,.,Cn1c(SCCOc2ccc(Cl)cc2)nnc1-c1ccncc1
-6,-2,-6,2.7,4.0,-2.2,.,0.71,i,CCc1ccccc1NC(=O)CNC(=O)c1cc(C2CC2)nn1-c1ccccc1
-5,5,27,0.1,.,-1.1,4,.,i,NC(=O)c1cc2ccccc2o/c1=N\NC(=O)c1ccc(F)cc1
5,-2,-1,-0.2,-35,-1.4,-7,0.67,i,C=CCNS(=O)(=O)c1ccc(C(=O)OCc2cc(=O)oc3cc(OC)ccc23)cc1
1,.,.,.,-1.6,-0.8,.,0.73,.,CCOC(=O)CNC(=O)c1ccccc1Br
1,14,15,3.2,0.5,4.2,-29,0.66,i,CC(C)(C)C(=O)Nc1nc2c(c(=O)[nH]1)CCCC2
0,-8,-3,1.4,2.9,-2.2,-1,0.66,i,COc1ccc(OC)c(NC(=O)c2cccc(N3C(=O)C4C5CCC(C5)C4C3=O)c2)c1 (stereo not drawn)
-3,-4,-3,0.0,3.3,-4.0,0,0.68,i,O=C(NCCN1CCOCC1)c1ccc(NC(=O)C2COc3ccccc3O2)cc1 (stereo not drawn)
3,7,7,2.7,.,0.3,0,.,.,CC(Cc1cccs1)NC(=O)Nc1ccc(Cl)cc1 (stereo not drawn)
-2,-5,-10,2.1,4.0,3.2,2,0.64,i,CCc1nn(CCCC(=O)NCc2ccc(OC(C)C)cc2)c(=O)c2cc3occc3n12
2,.,.,.,5.9,4.2,99*,0.61,i,NC(N)=NCC(O)CN(c1ccccc1)c1ccccc1 (stereo not drawn)
8,.,.,.,0.6,-4.5,.,0.74,.,Cc1ccc(C(c2nnnn2C2CCCCC2)N2CCc3ccccc32)cc1 (stereo not drawn)
16,-5,2,3.3,5.6,-2.3,.,0.69,i,O=C(COC(=O)CCC1CCCC1)Nc1ccccc1Br
15,.,.,.,0.2,-2.0,-16,0.72,.,CCc1nnc(NCn2nc(C)cc2C)s1
-4,26,7,0.2,1.6,-0.7,-9,0.71,i,CC(C)=Cc1c(O)nc2ccccn2c1=O
-9,2,1,-1.3,0.6,-1.3,-6,.,i,NC(=O)CNC(=O)[C@@H]1CC2(CC(c3ccccc3)=NO2)CN1C(=O)c1ccc(Br)cc1 (stereo partly drawn)
-6,10,5,0.0,-0.4,-1.3,3,0.7,.,CC(C)CN(C(=O)c1ccc2c(c1)OCO2)C1CCS(=O)(=O)C1 (stereo not drawn)
-3,.,.,.,0.6,1.1,-2,0.7,.,CCC(C)NC(=O)c1ccccc1NC(=O)CN(c1cc(C)ccc1OC)S(C)(=O)=O (stereo not drawn)
-18,2,-1,2.8,1.1,3.2,.,0.65,i,OC(CNCC1COc2ccccc2O1)COc1ccccc1F (stereo not drawn)

7 structures out of the list, sorted by number of heavy atoms, falling:
Beta2AR agonist,rRNA inh HTS,rRNA inh HTS OD600,rRNA inh HTS RFP,UCH37 DUB inh,HNF4A DNA FP,ALR inh,Ecoli growth,FGF22 binding,compound
-3,-4,-3,0.0,3.3,-4.0,0,0.68,i,O=C(NCCN1CCOCC1)c1ccc(NC(=O)C2COc3ccccc3O2)cc1 (stereo not drawn)
8,.,.,.,0.6,-4.5,.,0.74,.,Cc1ccc(C(c2nnnn2C2CCCCC2)N2CCc3ccccc32)cc1 (stereo not drawn)
-18,2,-1,2.8,1.1,3.2,.,0.65,i,OC(CNCC1COc2ccccc2O1)COc1ccccc1F (stereo not drawn)
1,.,.,.,1.7,0.2,2,0.66,.,OC(COCc1cccs1)CN1CCN(c2ccccn2)CC1 (stereo not drawn)
-1,4,13,-1.4,.,-1.2,5,.,i,CC(C)(C)C(=O)Nc1ccc(NC(=O)c2ccco2)nc1
4,-3,0,2.0,1.1,-0.5,98*,0.43*,i,O=c1cc(-c2ccccc2)cc(-c2ccccc2)n1O
0,1,2,1.6,2.0,-1.8,-6,0.68,i,Cc1cc(S(=O)(=O)N2CCCCC2)c(C)s1

An excerpt; rates above refer to the full screens.
